# High-throughput results from PubChem BioAssay.
# Ecoli rRNA inh – inhibits bacterial ribosomal RNA function over humanized ribosomes | E. coli WT GFP vs humanized-ribosome RFP mutants, fluorescence, 24 h; hits give low values; DMSO median 0, no signal -100 | GFP signal change (wild-type ribosome), % (test concentration not listed) | AID 720706 | actives 1.6% (n = 350,000);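 active means significant combined selectivity score with lowered wild-type GFP, culture density cut under 30%, mutant RFP and density less affected; inactive means any of these conditions unmet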; further: one replicate is shown; some compounds called inactive have numbers as strong as hits
# Ecoli rRNA inh OD600 – further read-out of Ecoli rRNA inh, marked with its call; OD600 change, %; measured here: OD600 growth;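 optical density of the mix in the first replicate; 0 = DMSO median and -100 = no signal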
# Ecoli rRNA inh RFP – also measured in Ecoli rRNA inh; calls as there; RFP signal change, %; measured here: RFP humanized mutant strains;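 first replicate; 0 = DMSO median and -100 = no signal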
# The depositor's hits bear a star. These rows are one share of the data. The share of hits here may be higher or lower than overall.
SMILES,Ecoli rRNA inh,Ecoli rRNA inh OD600,Ecoli rRNA inh RFP
C[C@H]1CN([C@@H](C)CO)C(=O)c2cccc(NC(=O)Nc3ccc(C(F)(F)F)cc3)c2O[C@H]1CN(C)Cc1ccc(C(=O)O)cc1,0,-5,0.1
C[C@@H]1CN([C@@H](C)CO)C(=O)c2cccc(NC(=O)CCCCCC(=O)Nc3ccccc3N)c2O[C@H]1CN(C)Cc1ccccc1,-13,-10,1.3
O=C(Nc1nccs1)[C@H]1[C@H](CO)[C@H]2Cn3c(cccc3=O)[C@H]2N1C(=O)C1CCCC1,0,6,-3.3
C[C@H]1CN(C)C(=O)c2cccc(N)c2O[C@@H]1CN(C)C(=O)OC(C)(C)C,-1,-2,1.1
CO[C@@H]1CN(C)C(=O)c2ccc(NC(=O)c3nc4ccccc4s3)cc2OC[C@@H](C)N(Cc2cncnc2)C[C@@H]1C,-13,-3,2.7
C[C@@H]1CCCn2nncc2COCCNC1=O,7,4,-5.2
COc1ccc(CN2CC3(CCN(C(=O)Nc4cccc(F)c4)CC3)c3c([nH]c4cc(OC)ccc34)[C@@H]2CO)cc1,0,-18,12
COCC(=O)N1CCC2(CC1)CN(Cc1cccc(OC)c1)[C@H](CO)c1c2c2ccc(OC)cc2n1C,9,-5,-2.3
C[C@H](CO)N1C[C@H](C)[C@H](CN(C)Cc2ccncc2)Oc2cc(-c3ccncc3)ccc2S1(=O)=O,0,1,-1.2
C[C@@H]1CN([C@H](C)CO)S(=O)(=O)c2ccc(C#C[C@@H](C)O)cc2O[C@H]1CN(C)CC1CC1,-2,-6,-2.8
O=C(Nc1ccc2c(c1)[C@H]1C[C@@H](CC(=O)N3CCCCC3)O[C@@H](CO)[C@H]1O2)Nc1ccccc1F,-7,-10,1.1
Cc1cccc(-c2ccc([C@@H]3[C@H](CO)N4CCCCN(Cc5cncnc5)C[C@@H]34)cc2)c1,-1,1,-1.4
CO[C@@H]1CN(C)C(=O)c2ccc(NC(=O)C3CCCCC3)cc2OC[C@H](C)N(Cc2cccnc2)C[C@@H]1C,-4,-9,-2.6
CC(=O)N(C)C[C@H]1Oc2ccc(NS(C)(=O)=O)cc2CC(=O)N(C)C[C@H]1C,0,9,-0.4
COc1ccc(S(=O)(=O)N(C)C[C@H]2Oc3c(NC(=O)Nc4c(C)noc4C)cccc3C(=O)N([C@H](C)CO)C[C@H]2C)cc1,0,-1,-1.4
O=C(c1cccc(F)c1)N1CC(=O)N2[C@H](CO)[C@@H](c3ccc(-c4ccccc4)cc3)[C@@H]2C1,4,-45,17
CCCNC(=O)Nc1ccc2c(c1)C(=O)N(C)C[C@H](OC)[C@@H](C)CN(Cc1ccncc1)[C@H](C)CO2,0,0,1.0
CS(=O)(=O)N1CC(=O)N2[C@H](C1)[C@H](c1ccc(C#CC3CCCC3)cc1)[C@@H]2CO,1,11,5.2
CO[C@H]1CN(C)C(=O)c2cc(NS(=O)(=O)c3ccc(C)cc3)ccc2OC[C@H](C)N(Cc2nccs2)C[C@@H]1C,-2,-6,3.0
C[C@@H]1CN([C@@H](C)CO)C(=O)CCCn2cc(nn2)CO[C@@H]1CN(C)C(=O)Oc1ccccc1,1,4,-2.7
C[C@H](CO)N1C[C@H](C)[C@H](CN(C)CC2CC2)Oc2cc(C#Cc3cccnc3)ccc2S1(=O)=O,0,5,0.1
C[C@@H]1CN([C@H](C)CO)C(=O)Cc2cc(NS(=O)(=O)c3ccc(Cl)cc3)ccc2O[C@H]1CN(C)Cc1ccc(-c2ccccc2)cc1,6,3,-0.7
CN1c2ccc(-c3cccc(C#N)c3)cc2[C@H]2[C@H](CCN2S(=O)(=O)c2cccc(F)c2)[C@@H]1CO,-1,1,0.6
C[C@H]1CN([C@@H](C)CO)C(=O)Cc2cc(NS(=O)(=O)c3cccs3)ccc2O[C@H]1CN(C)S(=O)(=O)c1cccs1,0,3,1.4
O=C(CN1CCOCC1)N[C@H]1CC[C@H](CCn2cc(C3CCCCC3)nn2)O[C@@H]1CO,2,1,-2.7
C[C@@H]1CN([C@@H](C)CO)C(=O)c2cc(NC(=O)C3CCCCC3)ccc2O[C@@H](C)CCCCO[C@H]1CN(C)S(C)(=O)=O,-3,6,0.2
C[C@H](CO)N1C[C@H](C)[C@H](CN(C)C(=O)C2CC2)Oc2cc(-c3cncnc3)ccc2S1(=O)=O,-3,-4,-0.2
C[C@H]1CCCCO[C@H](CN(C)S(C)(=O)=O)[C@@H](C)CN([C@@H](C)CO)C(=O)c2cc(N(C)C)ccc2O1,2,1,1.4
COc1ccc(S(=O)(=O)Nc2cccc3c2O[C@@H](CN(C)Cc2ccc(C(=O)O)cc2)[C@@H](C)CN([C@@H](C)CO)C3=O)cc1,7,13,-0.9
O=S(=O)(c1ccccc1)N1CCCCN2[C@H](C1)[C@H](c1ccc(C#Cc3ccccc3)cc1)[C@@H]2CO,6,9,-0.9
C[C@@H]1CN([C@@H](C)CO)C(=O)c2cc(C#CC(C)(C)O)cnc2O[C@H]1CN(C)Cc1cccc(F)c1,0,5,0.4
CO[C@@H]1CN(C)C(=O)c2ccc(NC(=O)Nc3ccccc3)cc2OC[C@H](C)N(C(=O)CN(C)C)C[C@H]1C,-1,2,0.4
O=C(C[C@H]1C[C@H]2c3cc(NC(=O)NC4CCCC4)ccc3O[C@H]2[C@@H](CO)O1)NCc1cccc(F)c1,5,2,2.8
COc1ccc([C@H]2CC=CC[C@H](C)Oc3ccccc3C(=O)N(C)[C@@H](C(C)C)C(=O)N2)c(OC)c1 (mixture of isomers),-10,-31,0.0
CNC[C@@H]1Oc2ccc(NS(C)(=O)=O)cc2C(=O)N([C@@H](C)CO)C[C@@H]1C,3,9,-2.1
CO[C@@H]1CN(C)C(=O)c2cc(NC(=O)C3CCCC3)ccc2OC[C@@H](C)N(C(C)=O)C[C@@H]1C,0,3,-2.2
COc1ccc(CN2CC3(CCN(S(=O)(=O)c4ccc(C)cc4)CC3)c3c([nH]c4cc(OC)ccc34)[C@@H]2CO)cc1,-50,-66,21
Cc1noc(C)c1S(=O)(=O)Nc1ccc2c(c1)C(=O)N([C@H](C)CO)C[C@H](C)[C@@H](CN(C)S(=O)(=O)c1c(C)noc1C)O2,2,-2,0.1
C[C@H]1CN([C@@H](C)CO)C(=O)c2cc(/C=C/c3ccccc3)cnc2O[C@H]1CN(C)C(=O)CN1CCOCC1,-1,7,-0.6
C[C@@H]1CCCCO[C@@H](CN(C)C(=O)Nc2ccccc2)[C@@H](C)CN([C@@H](C)CO)C(=O)c2cc(N(C)C)ccc2O1,3,1,-0.5
COc1ccccc1CN(C)C[C@@H]1OCc2cn(nn2)CCCC(=O)N([C@@H](C)CO)C[C@H]1C,-2,-3,0.0
Cc1ccc(S(=O)(=O)N(C)C[C@@H]2OCCCC[C@@H](C)Oc3ccc(N(C)C)cc3C(=O)N([C@@H](C)CO)C[C@H]2C)cc1,-3,-1,-1.9
CCCNC(=O)NC[C@H]1[C@H](c2ccc(C3=CCCC3)cc2)[C@H](CO)N1C(C)=O,-1,-10,1.4
CC(C)[C@@H]1C(=O)N[C@H](c2ccc3c(c2)OCO3)CC=CC[C@H](C)Oc2ccccc2C(=O)N1C (mixture of isomers),-7,-40,-3.9
COCC(=O)N1C[C@@H]2[C@H](c3ccccc31)[C@@H](CO)N2C(=O)C1CCOCC1,2,-4,-2.0
C[C@H]1CN([C@@H](C)CO)C(=O)Cc2cc(NS(=O)(=O)c3cn(C)cn3)ccc2O[C@@H]1CN(C)Cc1ccc(C(F)(F)F)cc1,0,-10,2.9
C[C@@H]1CN([C@@H](C)CO)C(=O)c2cccc(NC(=O)Nc3ccc(F)cc3)c2O[C@H]1CN(C)S(=O)(=O)c1cn(C)cn1,1,3,-1.7
O=S(=O)(c1ccccc1)N1CC[C@@H]2[C@H](CO)Nc3ccc(-c4ccccc4F)cc3[C@@H]21,1,-38,20
C[C@H]1CCc2cnnn2COCCNC1=O,6,8,-1.1
C[C@H]1CN([C@@H](C)CO)C(=O)c2cc(NS(=O)(=O)c3ccccc3)ccc2O[C@@H]1CN(C)S(=O)(=O)c1ccc(F)cc1,-4,-2,-0.7
O=C(c1cccc(F)c1)N1CC[C@@H]2[C@H](CO)Nc3ccc(-c4cccc(F)c4)cc3[C@@H]21,-2,-7,7.5
COc1ccc(CN(C)C[C@H]2OCCCC[C@H](C)Oc3ccc(NC(=O)NC(C)C)cc3C(=O)N([C@@H](C)CO)C[C@H]2C)cc1,-1,11,1.0
C[C@@H]1CCCCO[C@H](CN(C)C(=O)CCC(F)(F)F)[C@H](C)CN([C@@H](C)CO)C(=O)c2cc(NS(C)(=O)=O)ccc2O1,-3,-3,-2.3
CC(=O)Nc1cccc2c1O[C@@H](CN(C)C)[C@@H](C)CN(C)C2=O,0,2,-1.0
CC(=O)N(C)C[C@H]1Oc2cc(C3=CCCCC3)ccc2S(=O)(=O)N([C@H](C)CO)C[C@@H]1C,-1,-21,2.3
O=C(Cc1ccncc1)N1CC[C@@H]2[C@@H](CO)Nc3ccc(C4=CCCCC4)cc3[C@@H]21,2,10,-6.0
C[C@H]1CN([C@@H](C)CO)S(=O)(=O)c2ccc(C3=CCCCC3)cc2O[C@@H]1CN(C)Cc1ccccc1,3,-10,4.2
C[C@@H]1CN([C@@H](C)CO)C(=O)c2cc(C#CC3(O)CCCC3)cnc2O[C@H]1CN(C)C(=O)C1CC1,4,14,0.3
COc1ccc([C@H]2CC=CC[C@H](C)Oc3ccccc3C(=O)N(C)[C@@H](Cc3ccccc3)C(=O)N2)c(OC)c1 (mixture of isomers),1,1,2.2
C[C@@H]1CN([C@@H](C)CO)C(=O)c2cc(NS(C)(=O)=O)ccc2O[C@H]1CN(C)S(=O)(=O)c1ccc(Cl)cc1,2,2,0.1
# Other entries
SMILES,Ecoli rRNA inh,Ecoli rRNA inh OD600,Ecoli rRNA inh RFP
COc1ccc2c3c(n(C)c2c1)[C@@H](CO)N(Cc1ccncc1)CC31CCN(C(=O)C2CC2)CC1,3,-1,-3.9
CC(C)COC(=O)N(C)C[C@H]1OCc2ccccc2-c2ccccc2C(=O)N([C@H](C)CO)C[C@@H]1C,0,3,-1.1
O=C(Nc1ccccc1F)N1CCCCN2[C@H](CO)[C@@H](c3ccc(C4=CCCC4)cc3)[C@@H]2C1,-35,-47,2.1
C[C@@H]1CN([C@H](C)CO)C(=O)c2ccccc2-c2ccccc2CO[C@@H]1CN(C)C(=O)C1CC1,3,8,-1.4
COc1ccc(S(=O)(=O)N(C)C[C@@H]2Oc3ccc(NS(=O)(=O)c4cn(C)cn4)cc3C(=O)N([C@H](C)CO)C[C@H]2C)cc1,3,0,-0.4
C[C@@H]1CN([C@H](C)CO)C(=O)c2ccccc2-c2ccccc2CO[C@@H]1CN(C)S(=O)(=O)c1ccccc1F,-3,-1,0.6
CNC[C@@H]1OCc2cn(nn2)CCCC(=O)N([C@@H](C)CO)C[C@@H]1C,2,-3,-0.9
COC(=O)C[C@@H]1C[C@@H]2c3cc(NC(=O)Nc4ccc(C(F)(F)F)cc4)ccc3O[C@@H]2[C@@H](CO)O1,-21,-42,13
COc1ccc2c3c(n(C)c2c1)[C@H](CO)N(C(C)=O)CC31CCN(Cc2cncnc2)CC1,-2,-2,0.2
CCCNC(=O)N1[C@H](CO)[C@H]2c3ccccc3N(C(=O)Nc3ccccc3)C[C@H]21,-1,0,-3.2

# Structures shown so far that have an aryl methoxy group, in the order listed:
SMILES,Ecoli rRNA inh,Ecoli rRNA inh OD600,Ecoli rRNA inh RFP
COc1ccc(CN2CC3(CCN(C(=O)Nc4cccc(F)c4)CC3)c3c([nH]c4cc(OC)ccc34)[C@@H]2CO)cc1,0,-18,12
COCC(=O)N1CCC2(CC1)CN(Cc1cccc(OC)c1)[C@H](CO)c1c2c2ccc(OC)cc2n1C,9,-5,-2.3
COc1ccc(S(=O)(=O)N(C)C[C@H]2Oc3c(NC(=O)Nc4c(C)noc4C)cccc3C(=O)N([C@H](C)CO)C[C@H]2C)cc1,0,-1,-1.4
COc1ccc(S(=O)(=O)Nc2cccc3c2O[C@@H](CN(C)Cc2ccc(C(=O)O)cc2)[C@@H](C)CN([C@@H](C)CO)C3=O)cc1,7,13,-0.9
COc1ccc([C@H]2CC=CC[C@H](C)Oc3ccccc3C(=O)N(C)[C@@H](C(C)C)C(=O)N2)c(OC)c1 (mixture of isomers),-10,-31,0.0
COc1ccc(CN2CC3(CCN(S(=O)(=O)c4ccc(C)cc4)CC3)c3c([nH]c4cc(OC)ccc34)[C@@H]2CO)cc1,-50,-66,21
COc1ccccc1CN(C)C[C@@H]1OCc2cn(nn2)CCCC(=O)N([C@@H](C)CO)C[C@H]1C,-2,-3,0.0
COc1ccc(CN(C)C[C@H]2OCCCC[C@H](C)Oc3ccc(NC(=O)NC(C)C)cc3C(=O)N([C@@H](C)CO)C[C@H]2C)cc1,-1,11,1.0
COc1ccc([C@H]2CC=CC[C@H](C)Oc3ccccc3C(=O)N(C)[C@@H](Cc3ccccc3)C(=O)N2)c(OC)c1 (mixture of isomers),1,1,2.2
COc1ccc2c3c(n(C)c2c1)[C@@H](CO)N(Cc1ccncc1)CC31CCN(C(=O)C2CC2)CC1,3,-1,-3.9
COc1ccc(S(=O)(=O)N(C)C[C@@H]2Oc3ccc(NS(=O)(=O)c4cn(C)cn4)cc3C(=O)N([C@H](C)CO)C[C@H]2C)cc1,3,0,-0.4
COc1ccc2c3c(n(C)c2c1)[C@H](CO)N(C(C)=O)CC31CCN(Cc2cncnc2)CC1,-2,-2,0.2
